Bioassay records deposited in PubChem by several laboratories.
HSV augment = enhancers of HSV replication in host cells, fold increase, host cell viability; HSV replication augmentation in cells; maximum fold increase; 0.005% of 220,000 active; AID 1956, 2009;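 active = peak rise of 1.5-fold or more in the series; inconclusive = self-fluorescent or not available for retest; tested in PC3 cells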;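 note: first round at 10 µM; read as green reporter fluorescence; hits show the peak of a series up to 25 µM; 1 = signal of infected wells without compound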
PKD1 kinase inh = inhibitors of human PKD1 kinase, biochemical, fluorescence polarization | 0.056% of 200,000 active | AID 797, 2007 | inhibition, %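 (about 10 µM by stock and volumes)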 | PKD1 kinase fluorescence polarization assay;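 active = inhibition of 50% or more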;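 note: controls were vehicle for no effect and a reference inhibitor for full effect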
GALR2 agonist = GALR2 receptor agonists, primary screen, cell-based; activation, %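 (tested at 5 µM)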; GALR2-expressing cells, agonist activation read-out; Galanin receptor type 2 (Homo sapiens), O43603; 0.48% of 140,000 active;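 active = above mean plus 3 SD of all compounds, about 5% in these data, not always enough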;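 note: 0% = vehicle buffer wells and 100% = reference agonist at full effect; tested in CHO reporter cells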
Target sequence (O43603 whole entry, looked up): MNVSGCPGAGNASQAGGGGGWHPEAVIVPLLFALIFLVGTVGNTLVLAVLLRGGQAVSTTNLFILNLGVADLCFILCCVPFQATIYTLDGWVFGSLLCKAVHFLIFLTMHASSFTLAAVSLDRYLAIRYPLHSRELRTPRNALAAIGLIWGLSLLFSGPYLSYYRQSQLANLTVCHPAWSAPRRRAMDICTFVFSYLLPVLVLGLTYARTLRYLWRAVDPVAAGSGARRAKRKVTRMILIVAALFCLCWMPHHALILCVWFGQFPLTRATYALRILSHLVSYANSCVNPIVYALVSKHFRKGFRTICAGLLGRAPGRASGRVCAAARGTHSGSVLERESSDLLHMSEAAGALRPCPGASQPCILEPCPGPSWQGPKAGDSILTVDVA
Insulin prom inh = inhibitors of insulin promoter-driven GFP, primary screen, imaging, TRM-6 cells (human fetal islet line), eGFP reporter, cell count. reporter expression induced with tamoxifen. AID 1273, 2008. 0.9% of 130,000 active. inhibition, % at 2 µM;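 active = inhibition above the mean plus 3 SD, with well images judged a real hit on visual review, cut at about 60% in these data, passing the limit was not always enough; inconclusive = inhibition over the cutoff but images rejected on review; inactive = inhibition not above the cutoff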
RGS16-Gao = modulators of RGS16 binding to Galphao, primary screen, biochemical, human proteins, multiplexed bead flow cytometry | Regulator of G-protein signaling 16 (Homo sapiens) + Guanine nucleotide-binding protein … | bead-based flow cytometry RGS16-Galphao binding, fluorescence; actives lie on both sides | binding response (% of control), % at 10 µM | 0.38% of 220,000 active;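 active = below 25% or above 175%, edge rows of some plates excepted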;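 note: Galphao activated by GDP with aluminum fluoride before binding; 100% = wells without compound and 0% = beads without RGS; some results beyond the cut were filed as inactive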
Target sequence (O15492 whole entry, looked up): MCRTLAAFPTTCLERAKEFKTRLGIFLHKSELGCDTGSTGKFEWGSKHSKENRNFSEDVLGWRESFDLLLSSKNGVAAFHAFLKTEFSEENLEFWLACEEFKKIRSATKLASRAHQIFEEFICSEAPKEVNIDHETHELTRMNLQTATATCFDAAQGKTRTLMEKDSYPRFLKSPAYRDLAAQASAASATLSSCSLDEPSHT
Target sequence (P09471 whole entry, looked up): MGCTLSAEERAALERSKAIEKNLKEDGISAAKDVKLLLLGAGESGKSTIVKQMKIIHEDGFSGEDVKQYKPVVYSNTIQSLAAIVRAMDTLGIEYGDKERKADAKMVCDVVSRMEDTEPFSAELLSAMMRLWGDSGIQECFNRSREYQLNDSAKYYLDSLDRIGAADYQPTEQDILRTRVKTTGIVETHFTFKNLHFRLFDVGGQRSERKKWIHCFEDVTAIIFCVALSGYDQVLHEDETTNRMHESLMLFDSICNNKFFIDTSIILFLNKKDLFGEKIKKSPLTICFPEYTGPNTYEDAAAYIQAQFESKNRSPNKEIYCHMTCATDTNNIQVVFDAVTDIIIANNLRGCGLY
Insulin prom inh cell count = further read-out of Insulin prom inh, marked with its call; normalized cell count, %; measured here: cell count, toxicity; reference of the scale not given here;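 cells exposed to compound for 48 h; stained nuclei by imaging scaled within each plate; lower means fewer cells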
HSV augment primary fold = recorded beside HSV augment, whose call it bears; fold increase; compound at 10 µM; measured here: primary screen fold increase 10 uM; tested in PC3 cells;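 GFP signal in the first replicate; 1 = infected wells without compound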
Numbers without * were called inactive; i = inactive; ? = inconclusive; · = not tested or not shown.

Value order: HSV augment, HSV augment primary fold, PKD1 kinase inh, GALR2 agonist, Insulin prom inh, Insulin prom inh cell count, RGS16-Gao
1. CCO[C@@H]1OC(C(=O)N2CCN(Cc3ccccc3)CC2)=C[C@H](c2ccc(C(F)(F)F)cc2)[C@H]1CCCO
    i, 0.94, 9, ·, ·, ·, 96
2. CC(C)(C)NC(=O)C(c1ccco1)N(C(=O)c1ccc(CN2CCOCC2)o1)c1ccccc1 (configuration not stated)
    i, 0.97, 4, 0.5, ·, ·, 103
3. Cc1scc(C(=O)N/N=C/c2ccc(OCC(C)C)cc2)c1C
    i, 0.8, -3, -1.4, ·, ·, 105
4. CCOc1ccc(N2C(=O)/C(=C\c3ccc(O)c(OC)c3)S(=O)(=O)C2c2cccc([N+](=O)[O-])c2)cc1 (configuration not stated)
    i, 1, -12, ·, ·, ·, 98
5. S=c1[nH]nc(C2CCCCC2)n1/N=C/C(Cl)=C\c1ccccc1
    i, 0.72, -3, -0.5, 3, 152, 94
6. Cc1nn(-c2ccccc2)c(N)c1C(c1ccc(C(C)C)cc1)c1c(C)nn(-c2ccccc2)c1N
    i, 0.97, -4, 0.5, -27, 80, 104
7. CCn1c2ccccc2c2cc(N=C3SC(CC(=O)Nc4ccccc4)C(=O)N3C)ccc21 (configuration not stated)
    i, 0.93, -9, -0.7, -7, 105, 103
8. Clc1nssc1=Nc1ccc(Br)cc1
    i, 0.97, 1, ·, 21, 97, 76
9. CCOC(=O)c1c(C)n(C)c2ccc(OC)c(NS(=O)(=O)c3ccc(Cl)s3)c12
    i, 0.92, 6, -1.7, -25, 222, 100
10. COc1ccc(O)c(/C=N/NC(=O)c2cc(=O)[nH]c3ccccc23)c1
    i, 0.84, ·, ·, ·, ·, 88
11. COc1ccc(NC(=O)CC2C(=O)N(c3ccc(Cl)cc3)C(=S)N2CCc2ccccn2)cc1 (configuration not stated)
    i, 0.99, 0, -1.3, -90, 114, 97
12. COc1c(C)cccc1C(=O)Nc1ccc(CN2CCCCC2)cc1
    i, 0.86, -1, -1.6, 3, 103, 105
13. COc1ccc(C(=O)N2CCN(c3ccccc3OC)CC2)cc1
    i, 0.91, 4, ·, ·, ·, 92
14. Cn1c2ccccc2c2c(C(=O)O)cn(C3CCCC3)c(=O)c21
    i, 0.84, -3, 0.5, ·, ·, 100
15. CSc1nc(C)cc(Oc2ccc(=O)n(C)n2)n1
    i, 0.95, -4, -0.1, 33, 129, 104
16. Cc1c(C(Nc2ccccn2)c2ccccc2)c(=O)n(-c2ccccc2)n1C (configuration not stated)
    i, 1, -2, -2.5, 32, 107, 90
17. CCOc1ccc(C(=S)N2CCN(C)CC2)cc1
    i, 0.96, -5, ·, 0, 118, 102
18. O=C(NCc1cccnc1)c1ccc(Br)s1
    i, 0.92, ·, ·, ·, ·, 107
19. OC(COCC(F)(F)C(F)(F)C(F)(F)C(F)F)Cn1c2ccc(Cl)cc2c2cc(Cl)ccc21 (configuration not stated)
    i, 0.88, -4, 0.3, ·, ·, 103
20. Cc1cc(NC(=NC2CC2)c2ccccc2)n(-c2ccccc2)n1
    i, 1.1, -3, ·, 9, 95, 106

Later entries:
Value order: HSV augment, HSV augment primary fold, PKD1 kinase inh, GALR2 agonist, Insulin prom inh, Insulin prom inh cell count, RGS16-Gao
21. CC(=O)NC1(c2ccccc2)CCN(C(=O)N2CCOCC2)CC1
    i, 1, -3, -2.1, 35, 130, 71
22. O=C(COC(=O)COc1ccccc1)NCc1ccccc1
    i, 1, -3, ·, 0, 98, 106
23. Cc1ccc(C(=O)Nc2nc(=O)n(C)s2)cc1
    i, 0.97, 2, -0.6, ·, ·, 96
24. CCc1ccccc1N(CC(=O)OC)S(C)(=O)=O
    i, 0.88, -4, -2.5, -37, 108, 101
25. CCCCNC(=O)C1CCN(C(=O)Nc2ccc(C)cc2)CC1
    i, 0.98, -4, -2.1, -157, 123, 97
26. COc1ccc(/C=C(/C#N)C(=O)Nc2ccc(O)cc2)cc1C(=O)O
    i, 0.97, 4, ·, 38, 108, 99
27. COc1cc(CCCN2C(N)=NC[C@H]2Cc2ccc(O)cc2)cc(OC)c1OC
    i, 0.81, ·, ·, ·, ·, 102
28. CCN1C(=S)SC(=O)C1=C1C=C(C)N(Cc2ccco2)C(C)=C1
    ·, ·, -8, -0.9, -41, 107, 98
29. O=[N+]([O-])c1cccc(COc2ncnc3cc([N+](=O)[O-])ccc23)c1
    i, 1.1, ·, ·, ·, ·, 106
30. CCOc1ccc(-c2csc(NC(=O)CSCC(=O)O)n2)c2ccccc12
    i, 1, 0, ·, -45, 139, 100
31. COC(=O)c1c(C)oc2ccc(OC(=O)c3cccs3)cc12
    i, 0.93, 1, -1.0, ·, ·, 86
32. COc1ccc(-c2nc(CSCC(=O)N3CCN(C4CCCCC4)CC3)c(C)o2)cc1OC
    i, 1.4, -8, -3.0, ·, ·, ·
33. Cc1ccc(-c2nnc(SCC(=O)Nc3ccc4c(c3)oc3ccccc34)n2C)c(Cl)c1
    i, 0.76, -6, -1.2, 31, 130, 115
34. O=C(CCN1CCN(Cc2ccccc2)CC1)NNC(=O)Cc1ccc(Cl)c(Cl)c1
    i, 1, -1, -1.1, 7, 69, 109
35. CC(=O)NC(CC(=O)O)c1ccc([N+](=O)[O-])cc1 (configuration not stated)
    i, 0.97, ·, ·, ·, ·, 100
36. COc1cc(/C=C/C(=O)OCC(=O)c2c[nH]c3ccccc23)ccc1OC(F)F
    i, 0.99, 4, 0.2, ·, ·, 98
37. OC(COCc1ccc(Cl)cc1)CN1CCN(CC(O)COCc2ccc(Cl)cc2)CC1 (configuration not stated)
    i, 0.81, -4, -0.8, 11, 64, 111
38. CC(C)OCCCNC(=S)NNC(=O)c1ccc(Cl)c(Cl)c1
    i, 1, 9, ·, ·, ·, 96
39. Cc1ccc(CNCCC2=CCCCC2)cc1
    i, 0.71, -1, -2.0, -37, 18, 96
40. COC(=O)[C@@H]1C[C@@]2(O)[C@H](O)[C@H](O)[C@H](O)C[C@H]2N1Cc1ccc(C)s1
    i, 1, ·, ·, ·, ·, 102

The results go on:
Value order: HSV augment, HSV augment primary fold, PKD1 kinase inh, GALR2 agonist, Insulin prom inh, Insulin prom inh cell count, RGS16-Gao
41. O=C(O)c1c2c(nc3ccccc13)-c1ccccc1CC2
    i, 1.1, -2, ·, -33, 55, 100
42. COc1ccc(N=C2SC(CC(=O)Nc3ccccc3)C(=O)N2Cc2ccco2)cc1 (configuration not stated)
    i, 1, 2, -0.3, ·, ·, 104
43. COc1ccc(/C(O)=C2/C(=O)C(=O)N(CCCN(C)C)C2c2ccc(C)o2)cc1Cl (configuration not stated)
    i, 1.1, 12, -1.3, ·, ·, 100
44. CC(C)(C)c1cc(C(=O)NN)n(Cc2ccc(Cl)cc2Cl)n1
    i, 1.4, ·, ·, ·, ·, 102
45. CN1CC=C2C(C#N)=C(N)C(C#N)(C#N)[C@H](c3ccoc3)[C@H]2C1
    ?, ·, 5, -0.2, -14, 81, 114
46. O=P(Cc1cc[n+]([O-])cc1)(c1ccccc1)c1ccccc1
    i, 0.98, -2, 0.0, 21, 114, 109
47. Cc1ccc(-n2ncc3c(Nc4cccc(C(=O)O)c4)ncnc32)cc1
    ·, ·, 0, 0.2, -7, 45, 101
48. COC(=O)c1ccc(N2C(=O)CC(SCCN)C2=O)cc1 (configuration not stated)
    i, 0.94, 8, -4.0, 27, 138, 102
49. COCCCNS(=O)(=O)c1ccc(SC)cc1
    i, 1.1, 1, -1.8, 5, 115, 101
50. O=C(Nc1ccc2c(c1)OCCO2)C1CCCN1S(=O)(=O)c1cccc2cccnc12 (configuration not stated)
    i, 0.85, 5, -0.2, ·, ·, 104
51. COc1ccc(CC(=O)Nc2ccc(-c3cn4ccc(C)cc4n3)cc2)cc1
    i, 0.87, 1, 0.9, -7, 85, 104
52. S=C(NCC1CCCO1)NC1CC1 (configuration not stated)
    i, 0.92, 6, ·, -25, 141, 104
53. CN(C)N(C)C(=O)C(O)(c1ccccc1)c1ccccc1
    i, 1, -2, ·, ·, ·, 107
54. Fc1ccc(CSc2nnc(-c3ccncc3)o2)cc1
    i, 0.83, 2, ·, ·, ·, 101
55. CCOC(=O)C1(CC2CC2)CCN(S(=O)(=O)C[C@]23CC[C@H](CC2=O)C3(C)C)CC1
    i, 1.1, -3, ·, ·, ·, 111
56. S=c1[nH]nc(-c2ccc3ccccc3n2)n1-c1ccc2ncccc2c1
    i, 1.1, -14, -0.6, -25, 97, 84
57. CN1CCCN(S(=O)(=O)c2ccc(Cl)c(Cl)c2)CC1
    i, 0.99, -4, ·, 22, 129, 100
58. Cc1ccc(N(C)C(=O)c2ccc(CNc3c(N4CCC(C)CC4)c(=O)c3=O)cc2)cc1
    i, 0.95, ·, ·, ·, ·, 100
59. Cc1cc(N)c(NC2=CC(=O)CC(C)(C)C2)cc1C
    i, 1.2, 2, -1.4, 56, 120, 98
60. O=C(NCC1CCCO1)c1ccc(COCC(F)(F)C(F)F)cc1 (configuration not stated)
    i, 1.1, 1, -3.4, 38, 123, 100

Taken from above.
HSV augment primary fold with entry 46 : 0.98
Insulin prom inh cell count with entry 51 : 85

Further compounds.
Value order: HSV augment, HSV augment primary fold, PKD1 kinase inh, GALR2 agonist, Insulin prom inh, Insulin prom inh cell count, RGS16-Gao
61. O=S(=O)(c1ccc(Br)cc1)N1CCCC1c1nc2ccccc2s1 (configuration not stated)
    i, 0.93, -1, -1.0, 25, 115, 99
62. COc1ccc(-n2c(SC)nnc2-c2c[nH]c3ccccc23)cc1
    i, 1, 3, -1.3, ·, ·, 101
63. COc1ccc(-c2nc(N)n(C(=O)c3cccs3)n2)cc1
    i, 0.96, 5, ·, 27, 127, 100
64. COc1ccc(N2CCN(Cc3nc4c(c(=O)n(C)c(=O)n4C)n3CCc3ccccc3)CC2)cc1
    i, 0.89, 5, -1.2, ·, ·, 99
65. COC(=O)c1ccc(Cn2cc([N+](=O)[O-])cn2)cc1
    i, 1, ·, ·, ·, ·, 93
66. CCN(CC)c1ccc(/C=N/NC(=O)c2cc(C)nc3ccccc23)cc1
    i, 0.75, ·, ·, ·, ·, 103
67. NS(=O)(=O)c1ccc(NC(=S)N2CCN(Cc3ccc4c(c3)OCO4)CC2)cc1
    i, 1, 1, ·, -6, 128, 94
68. Cc1cc(O)c(N)c(C)c1Cl
    i, 1, 0, ·, ·, ·, 99
69. CC(=O)c1c(C)[nH]c(C(=O)OCc2cccc(Cl)c2)c1C
    i, 0.98, -7, ·, ·, ·, 100
70. Cc1[nH]n(-c2ccc([N+](=O)[O-])cc2)c(=O)c1N=Nc1nc2ccccc2s1
    ·, ·, 2, -0.3, -275, 23, ·
71. O=C(Nc1sc2c(c1C(=O)NCc1ccco1)CCCC2)c1ccc2c(c1)OCO2
    i, 1, -5, 0.0, 20, 162, 97
72. CC1CCCC(NC(=O)COC(=O)COc2ccccc2Cl)C1C (configuration not stated)
    i, 0.93, 6, ·, 42, 56, 104
73. COc1ccc(S(=O)(=O)Nc2cc3c(C(C)=O)c(C)oc3c3ccccc23)cc1
    i, 0.63, -5, 0.3, -154, 10, 97
74. CC(C)c1nnc(NC(=O)C2CCCO2)s1 (configuration not stated)
    i, 0.96, -3, ·, ·, ·, 103
75. CCN(Cc1ccccc1)c1ccc(/C=N/N=C(N)N)cc1
    i, 0.48, -5, -0.1, -27, 106, 100
76. CCn1c(SCC(=O)c2ccc3c(c2)OCCO3)nnc1C(C)C
    i, 1, -6, -0.1, -25, 69, 98
77. COc1ccc2c(c1)CCc1c(C(=O)NCCN3CCOCC3)noc1-2
    i, 0.98, 1, -0.2, ·, ·, 101
78. COC(=O)c1sc(OC)cc1OCc1ccc(C)cc1
    i, 0.91, 3, -2.7, -3, 79, 94
79. CCc1ccc(N(CC(=O)Nc2ccccc2C(=O)N2CCOCC2)S(C)(=O)=O)cc1
    i, 1.1, -12, -0.5, -35, 128, 103
80. COc1cccc(OCc2nc3c4cnn(-c5ccccc5)c4ncn3n2)c1
    i, 0.73, -14, 0.5, -8, 145, 103
81. C/C(=N\N=C\c1ccccc1)c1nnn(-c2nonc2N)c1C
    i, 1.1, -5, -1.0, ·, ·, 104
